Calb FLC – affects C. albicans growth with fluconazole; C. albicans CaCi-2 (fluconazole-resistant clinical isolate) + fluconazole, Alamar Blue growth, 48 h; growth inhibition, % (concentration not given with the values); 300,000 tested, 0.57% active;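 active = most replicates above 75%; inconclusive = exactly half above 75%; inactive = most below 75%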;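 also: all wells also contain fluconazole at 8 µg/ml as a sub-toxic cotreatment; 0% = median of DMSO wells and 100% = median of geldanamycin control wells; wells of about 8 µL received 7.5 nL stock; the first replicate is given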
Bfl-1 A1 inh – inhibitors of the anti-apoptotic protein A1, read as caspase activation; 330,000 tested, 0.066% active; MEF A1-2A-BIM cells, Caspase-Glo 3/7 luminescence, 3 h; percent of clofoctol response, vehicle zero; caspase activation, % (no concentration beside the values);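 active = over half of replicate activation scores above 10%, or exactly half above 10 with the replicate mean above 10; inconclusive = replicate mean below 10 yet half the replicates above 10; inactive = over half of replicates below 10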;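 also: wells of about 30 µL received 50 nL stock; many hits fall short of the cut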
T cruzi repl – blocks replication of Trypanosoma cruzi. inhibition, % (no concentration beside the values). 300,000 tested, 1.4% active. T. cruzi beta-gal in NIH3T3, luminescence, 90 h;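 active = mean inhibition across valid replicates above about 55%, limit read from the data; inconclusive = mean below that limit but half or more replicates reach it; inactive = mean below it, under half of replicates reach it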;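 also: signal also drops with host cell toxicity which is not excluded here; 0% = plate median of DMSO wells and 100% = zero luminescence signal; higher percent means less beta-gal luminescence so fewer parasites; stock transfer was 50 nL into about 50 µL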
Beta apoptosis – blocks beta cell apoptosis. INS-1E cytokine-induced death, ATP luminescence, 48 h; percent of positive-control rescue, neutral wells zero. protection from apoptosis, % (test concentration not listed). 300,000 tested, 0.8% active. AID 435005;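 active = all replicates at 75% or more, or half of them and the mean; inconclusive = half reach 75% but not the mean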;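 also: 0% = cytokine-treated negative control wells and 100% = positive control rescue; higher means more ATP so stronger rescue from cytokine killing; wells of about 40 µL received 100 nL stock; the first replicate is given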
Ecoli rRNA inh – inhibitors of bacterial rRNA selective over humanized ribosomes; E. coli WT GFP vs humanized-ribosome RFP mutants, fluorescence, 24 h; stronger effect = lower value; DMSO median 0, no signal -100; GFP signal change (wild-type ribosome), % (test concentration not listed); 350,000 tested, 1.6% active;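 active = significant combined selectivity score with lowered wild-type GFP, culture density cut under 30%, mutant RFP and density less affected; inactive = any of these conditions unmet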; also: one replicate is shown; some compounds called inactive have numbers as strong as hits
RanGTP-Imp inh – inhibitors of RanGTP-importin-beta interaction, primary screen, biochemical, FRET, CFP-Ran, YFP-importin-beta, homogeneous. cell-free CFP-Ran/YFP-importin-beta FRET ratio. inhibition, % (no concentration beside the values). 300,000 tested, 1.1% active. AID 2216;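 active = most replicates above 15%; inconclusive = exactly half above 15%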;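 also: 0% = DMSO wells and 100% = Ran loaded with GDP instead of GTP; wells of about 40 µL received 100 nL stock; the first replicate is given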
Vif TR-FRET – inhibitors of Vif binding to APOBEC3G peptide, primary screen, biochemical, TR-FRET, GST-Vif 1-94, biotin-A3G peptide, dose response retest (AID 1117319). 260,000 tested, 0.57% active. one-dose inhibition, %; IC50 in µM for titrated hits. TR-FRET GST-Vif / biotin-A3G peptide binding; higher % means a stronger effect; test concentration not given here; strong numbers were not always called active;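 active = above the screen mean plus three standard deviations and confirmed in dose response; inconclusive = results disagree or hit not tested in dose response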;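 also: Vif residues 1-94 fused to GST binding biotinylated APOBEC3G peptide 110-148; 0% = full assay without inhibitor and 100% = GST in place of GST-Vif; retest series ran down from 100 µM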
AF4-AF9 inh – MLL-AF4/AF9 protein interaction inhibition. P42568. AlphaScreen, biotin-AF4 peptide binding to FLAG-AF9. inhibition, % at 10 µM. 350,000 tested, 0.47% active. AID 651704;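 active = every replicate reaching a set inhibition limit, whatever the replicate mean, cut at about 25% in these data; inconclusive = mean inhibition reaches that limit but some replicates miss it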;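 also: 0% = plate neutral control median and 100% = total signal loss; the record names both 10 and 1 µM as test concentration; the first replicate is given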
Target sequence (P42568 whole entry, looked up): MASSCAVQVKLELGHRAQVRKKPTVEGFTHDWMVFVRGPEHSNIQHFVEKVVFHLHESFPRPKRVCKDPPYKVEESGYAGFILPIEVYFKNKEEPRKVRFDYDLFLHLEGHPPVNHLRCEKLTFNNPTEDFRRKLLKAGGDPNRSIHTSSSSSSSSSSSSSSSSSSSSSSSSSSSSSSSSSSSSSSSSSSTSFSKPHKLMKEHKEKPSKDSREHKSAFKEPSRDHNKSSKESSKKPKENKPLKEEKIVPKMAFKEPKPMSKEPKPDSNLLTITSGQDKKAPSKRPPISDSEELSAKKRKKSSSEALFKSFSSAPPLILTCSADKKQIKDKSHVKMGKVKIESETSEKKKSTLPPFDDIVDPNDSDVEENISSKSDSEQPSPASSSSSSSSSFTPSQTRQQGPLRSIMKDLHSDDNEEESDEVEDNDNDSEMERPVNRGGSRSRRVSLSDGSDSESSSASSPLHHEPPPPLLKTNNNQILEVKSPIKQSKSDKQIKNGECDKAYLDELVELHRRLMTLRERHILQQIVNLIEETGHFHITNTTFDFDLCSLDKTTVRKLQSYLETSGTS
Ecoli rRNA inh OD600 – also measured in Ecoli rRNA inh; calls as there; OD600 change, %; measured here: OD600 growth;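 optical density of the mix in the first replicate; 0 = DMSO median and -100 = no signal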
Ecoli rRNA inh RFP – also measured in Ecoli rRNA inh; calls as there; RFP signal change, %; measured here: RFP humanized mutant strains;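 first replicate; 0 = DMSO median and -100 = no signal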
The depositor's hits bear a star; ? = inconclusive; · = not tested or not shown. These rows are one share of the data (hit frequency here may not be typical).

SMILES	Calb FLC	Bfl-1 A1 inh	T cruzi repl	Beta apoptosis	Ecoli rRNA inh	Ecoli rRNA inh OD600	Ecoli rRNA inh RFP	RanGTP-Imp inh	Vif TR-FRET	AF4-AF9 inh
CCN(C(=O)CSc1nccc(=O)[nH]1)C1CCCCC1	·	-0.6	·	3	18	9	6.6	·	·	4.5
Cc1ccccc1OCc1nc2ccccc2n1C	16	-8.3	28	·	-27*	-10*	-4.3*	-1.2	15%	-2.0
CN1CCCC(OC(=O)c2cc(F)c(F)c(F)c2F)C1 (stereo unspecified)	4	-0.2	-4	5	13	9	-1.4	1.0	0%	-1.7
O=C(O)c1cc([N+](=O)[O-])ccc1C(=O)Nc1ccccc1	-7	0.6	-7	-5	·	·	·	?	3%	·
O=C(CN(Cc1ccc(F)cc1)C(=O)CCC(=O)Nc1nccs1)NCc1ccccc1	9	0.5	2	-1	-1	6	-0.4	4.5	·	0.3
O=C(c1cccc(S(=O)(=O)N2CCCCC2)c1)N1CCN(c2ccccc2)CC1	28	0.7	15	1	-22	-19	-1.4	-0.2	·	2.2
CCN(CC)CCCNC(=O)CNC(=O)c1nn(-c2ccc(OC)cc2)c(=O)c2ccccc12	-33	0.3	-4	·	17	15	1.3	1.2	25%	2.7
COC(=O)c1sccc1NC(=O)c1ccccc1C(=O)O	-2	0.1	-9	-5	6	8	-0.3	4.4	·	2.7
O=C(Nc1ccccc1)c1ccc(S(=O)(=O)NCC2CCCO2)cc1 (stereo unspecified)	-15	-1.0	-13	·	·	·	·	-4.5	11%	·
CCCn1c(N)c(N(CCOC)C(=O)c2cc(S(=O)(=O)N3CCCCCC3)ccc2OC)c(=O)[nH]c1=O	1	0.4	1	-1	9	11	-0.2	0.0	·	-2.7
COC(=O)c1cc2occc2n1CC(=O)Nc1ccc(C)cc1C	-6	0.7	7	2	·	·	·	-0.3	1%	·
Cc1cc(C)n(C(=O)c2ccc(NC(=O)C3CC3)cc2)n1	4	0.0	-6	-2	11	6	-1.5	6.5	6%	3.8
Cc1cccc(-n2ccnc2SCC(=O)c2c(N)n(C3CC3)c(=O)[nH]c2=O)c1C	·	0.5	·	1	0	12	5.8	·	8%	-2.2
CCOc1ccccc1NC(=O)NNC(=O)c1ccc2ccccc2c1	5	-0.4	9	2	0	-6	1.9	6.5	·	-11
COc1ccc(C(=O)COC(=O)Cn2[nH]c(=O)c3ccccc3c2=O)c(OC)c1	2	3.8	-2	-2	0	1	-0.8	-2.7	·	-7.5
CCCS(=O)(=O)N1CCCC(C(=O)NCCN(CC)c2ccccc2)C1 (stereo unspecified)	9	0.1	0	-3	·	·	·	-2.7	5%	·
C=CCSc1nnc(NC(=O)COc2ccccc2)s1	24	1.5	-6	-3	6	3	-6.5	5.8	·	-1.8
Cc1nc(NC(=O)COC(=O)/C=C/c2ccco2)c(Cl)cc1Cl	·	-0.7	·	0	5	8	1.0	·	20%	-1.6
O=C(CN1CCOc2ccccc21)NC1CCN(Cc2ccccc2)CC1	-3	0.3	13	0	9	12	0.9	-3.9	3%	9.7
Cc1nc2ccccc2nc(C)c1=NO	-5	0.9	-7	-1	·	·	·	0.6	27%	·

A run of entries of the results above, for reference:
SMILES	Calb FLC	Bfl-1 A1 inh	T cruzi repl	Beta apoptosis	Ecoli rRNA inh	Ecoli rRNA inh OD600	Ecoli rRNA inh RFP	RanGTP-Imp inh	Vif TR-FRET	AF4-AF9 inh
COC(=O)c1cc2occc2n1CC(=O)Nc1ccc(C)cc1C	-6	0.7	7	2	·	·	·	-0.3	1%	·
Cc1cc(C)n(C(=O)c2ccc(NC(=O)C3CC3)cc2)n1	4	0.0	-6	-2	11	6	-1.5	6.5	6%	3.8
Cc1cccc(-n2ccnc2SCC(=O)c2c(N)n(C3CC3)c(=O)[nH]c2=O)c1C	·	0.5	·	1	0	12	5.8	·	8%	-2.2
CCOc1ccccc1NC(=O)NNC(=O)c1ccc2ccccc2c1	5	-0.4	9	2	0	-6	1.9	6.5	·	-11
COc1ccc(C(=O)COC(=O)Cn2[nH]c(=O)c3ccccc3c2=O)c(OC)c1	2	3.8	-2	-2	0	1	-0.8	-2.7	·	-7.5

(more compounds)
SMILES	Calb FLC	Bfl-1 A1 inh	T cruzi repl	Beta apoptosis	Ecoli rRNA inh	Ecoli rRNA inh OD600	Ecoli rRNA inh RFP	RanGTP-Imp inh	Vif TR-FRET	AF4-AF9 inh
CC(N)(C(=O)O)c1cccc(OCc2cccc(Cl)c2)c1 (stereo unspecified)	-3	0.4	-8	-1	8	0	-6.4	-4.7	-9%	-23
O=C(NC1CCSC1=O)c1ccccc1 (stereo unspecified)	26	-0.5	-13	-5	·	·	·	-2.1	5%	·
CC(=O)Nc1ccc(NC(=O)CCCc2ccccc2)cc1	2	-0.1	0	-1	·	·	·	3.9	-9%	·
O=C1CN(C(=O)CSc2nnc(-c3ccccc3)n2Cc2ccc3c(c2)OCO3)c2ccccc2N1	3	0.5	23	-5	·	·	·	8.2	21%	·
Cc1ccc(CNC(=O)c2ccc(N3CCC4(CC3)CC(c3ccccc3)=NO4)c(NC(=O)c3ccc(Br)cc3)c2)cc1	4	0.7	1	-3	6	3	-11	2.2	·	0.5
CCC(=O)n1nc(-c2ccccc2)nc1SCC(=O)Nc1ccc(C)cc1	3	0.7	1	3	·	·	·	0.0	31%	·
COc1ccc2c(C)cc(N3CCCCCC3)nc2c1	42	0.6	6	7	-5	-14	-15	7.9	-6%	-8.2
COc1ccc(C(=O)NC(=S)Nc2ccccc2N2CCN(S(C)(=O)=O)CC2)cc1OC	42	?	11	12	-11	-13	-1.9	-1.1	10%	8.2
CC(=O)c1ccc(N(C(=O)CNC(=O)c2ccco2)C(C(=O)NCC2CCCO2)c2ccccc2)cc1 (stereo unspecified)	-15	-2.0	-8	-6	13	7	0.6	3.6	12%	-0.3
Cc1cc(NC(=O)COC(=O)c2cccc(S(=O)(=O)N(C)C3CCCCC3)c2)no1	22	0.6	17	-1	-19	-15	-0.6	-1.6	·	4.8
COC(=O)c1cn(NC(=O)Cc2ccc(Cl)cc2)c(=O)c2ccccc12	3	-0.3	-4	-5	·	·	·	0.5	·	·
CS(=O)(=O)c1ncc(Cl)c(C(=O)Nc2ccc(OC(F)F)cc2)n1	1	18*	55*	?	-54	-79	-21	-1.1	·	·
COc1ccc(/C=N/Nc2ncc(Br)cn2)c(OC)c1	-31	-3.1	-35	-5	9	15	-1.8	?	·	-2.0
CCn1cc(CNC(=O)c2ccc(Cl)c([N+](=O)[O-])c2)c(C)n1	19	0.8	2	4	2	3	-4.7	-1.2	16µM*	-10
Cc1ccc(C)c2nc(Cl)c(C#N)cc12	17	0.8	-12	14	·	·	·	-1.3	-33%	-1.6
CC(C)C(OC(=O)CCC(=O)Nc1nccs1)C(=O)NC1CCCCC1 (stereo unspecified)	11	-0.7	5	-1	18	14	2.9	1.7	11%	-1.1
CCc1nnc(NC(=O)C2CCCN2S(=O)(=O)c2ccccc2)s1 (stereo unspecified)	18	0.3	-2	-8	7	2	2.3	-0.7	-2%	0.3
Cc1ccc(NC(=O)CSc2ncnc3ccccc23)cc1S(=O)(=O)N1CCOCC1	0	0.2	-6	-16	-9	-8	3.8	3.7	-14%	-5.2
Cn1cc(S(=O)(=O)NCc2cccs2)c(=O)n(C)c1=O	3	2.0	-12	-5	7	12	-0.7	0.7	1%	1.4
Cc1cc(C)n(-c2cc(O)c(-n3nc(C)cc3C)cc2O)n1	35	-0.9	-1	-7	14	16	2.6	-1.3	6%	-2.8
Cc1ccc(S(=O)(=O)N2CCN(C(=O)Cn3c(=O)cnc4ccccc43)CC2)cc1	·	0.7	·	-2	·	·	·	·	2%	-1.8
C[C@@H](NC(=O)c1[nH]cnc1C(=O)Nc1ccccc1)c1ccccc1	·	-1.6	·	0	-54	-80	-29	·	·	5.0
CCn1c(N2CCN(S(=O)(=O)c3ccccc3C(F)(F)F)CC2)nc2ccccc21	43	-0.4	23	7	·	·	·	0.5	-2%	·
CCOc1ccc(CCNS(=O)(=O)c2ccc3c(c2)NC(=O)CO3)cc1OCC	-1	0.5	-16	-7	-7	-6	-1.0	-1.0	·	-2.1
Cc1ccc(S(=O)(=O)N2CCOCC2)cc1NC(=O)c1cc2c(s1)CCC2	8	1.2	52	-3	·	·	·	-1.2	-6%	·
CN(c1ccccc1)S(=O)(=O)c1ccc(C(=O)NCc2cccs2)cc1	-5	-0.5	2	5	-6	-4	-0.4	-1.7	14%	3.0
FC(F)Sc1ccc(Nc2ncnc3nc[nH]c23)cc1	2	-3.6	-3	0	·	·	·	-4.4	-7%	·
CC[C@H](C)[C@H](NC(=O)c1ccccc1)C(=O)Nc1ccc(S(=O)(=O)Nc2cc(C)nc(C)n2)cc1	-3	-0.1	8	-1	7	11	-6.1	0.0	-2%	-5.7
O=C(CCNS(=O)(=O)c1cccc(C(F)(F)F)c1)NCc1ccco1	·	0.6	·	3	-3	8	-1.1	·	·	-0.3
C/C(=N/NC(=O)c1cc(-c2ccc(Br)s2)[nH]n1)c1ccco1	13	-0.1	-1	4	-39	-71	-5.7	?	-5%	0.5
O=C(c1ccc(CNS(=O)(=O)c2ccccc2)cc1)N1CCN(Cc2ccccc2)CC1	-3	0.0	10	2	·	·	·	7.3	-1%	·
O=C(c1c[nH]c(=O)n(-c2ccccc2)c1=O)N1CCc2ccccc21	29	0.0	8	1	·	·	·	-5.7	?	·
CCc1ccc(-n2c(=S)sc3c(=O)n(-c4ccccc4OC)c(=S)[nH]c32)cc1	30	0.6	-9	·	14	15	10	9.5	0%	1.9
Cc1ccccc1NC(=O)c1csc2c1CCCC2	-18	1.3	10	1	·	·	·	1.1	-6%	·
O=S(=O)(NCc1ccccn1)c1ccc(Cl)s1	-11	0.8	-8	-4	8	10	-0.6	3.7	17%	0.7
Cc1cc(C(=O)Nc2c(C)n(C)n(-c3ccccc3)c2=O)cs1	19	0.4	-10	-2	·	·	·	2.9	0%	·
O=C(CCn1c(=O)c2ccccc2n(CC(=O)N2CCN(c3ccccc3)CC2)c1=O)NCc1ccco1	4	0.1	2	1	5	5	0.4	-3.9	-7%	-6.0
COc1ccc(NC(=O)CN(C)C(=O)CCc2ccccc2)cc1	1	1.0	-3	-1	4	7	3.8	-2.5	·	-2.5
Cc1ccccc1C(=O)Nc1c(C)[nH]c(=O)[nH]c1=O	·	0.1	0	-5	3	7	-1.5	-0.7	-5%	-2.8
CN(CCc1ccccn1)C(=O)CCC1CCCN(C(=O)c2c(F)ccc(F)c2F)C1 (stereo unspecified)	-6	-0.3	1	-2	3	3	1.2	1.9	-4%	1.1

High-throughput results: PubChem BioAssay, several laboratories
